# Screening results: PubChem BioAssay, several laboratories
# Mtb growth: M. tuberculosis H37Rv growth inhibitors, H37Rv strain (AID 1626); M. tuberculosis H37Rv growth inhibition; higher % means a stronger effect; hit rate 0.95% among 220,000; inhibition, % at 10 µM; hits with a dose series show IC50 in µM;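 active means confirmed in a dose series; inconclusive means inhibition above 80% but not taken into the dose series; inactive means below 80% or under 30% at every dose of the series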;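 further: bacteria incubated seven days before Alamar blue readout; 0% = bacteria only wells and 100% = bacteria with antibiotic wells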
# RecA splice inh: Mtb RecA intein splicing inhibition; P9WHJ3; hit rate 0.75% among 290,000; inhibition, %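 (about 9 µM by stock and volumes)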; cell-free RecA intein splicing, fluorescence; in the data active means inhibition above about 30%; inconclusive means no clear call, values can overlap the other calls;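 further: 0% = vehicle wells and 100% = reference inhibitor control wells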
# Target sequence (P9WHJ3 whole entry, looked up, canonical isoform): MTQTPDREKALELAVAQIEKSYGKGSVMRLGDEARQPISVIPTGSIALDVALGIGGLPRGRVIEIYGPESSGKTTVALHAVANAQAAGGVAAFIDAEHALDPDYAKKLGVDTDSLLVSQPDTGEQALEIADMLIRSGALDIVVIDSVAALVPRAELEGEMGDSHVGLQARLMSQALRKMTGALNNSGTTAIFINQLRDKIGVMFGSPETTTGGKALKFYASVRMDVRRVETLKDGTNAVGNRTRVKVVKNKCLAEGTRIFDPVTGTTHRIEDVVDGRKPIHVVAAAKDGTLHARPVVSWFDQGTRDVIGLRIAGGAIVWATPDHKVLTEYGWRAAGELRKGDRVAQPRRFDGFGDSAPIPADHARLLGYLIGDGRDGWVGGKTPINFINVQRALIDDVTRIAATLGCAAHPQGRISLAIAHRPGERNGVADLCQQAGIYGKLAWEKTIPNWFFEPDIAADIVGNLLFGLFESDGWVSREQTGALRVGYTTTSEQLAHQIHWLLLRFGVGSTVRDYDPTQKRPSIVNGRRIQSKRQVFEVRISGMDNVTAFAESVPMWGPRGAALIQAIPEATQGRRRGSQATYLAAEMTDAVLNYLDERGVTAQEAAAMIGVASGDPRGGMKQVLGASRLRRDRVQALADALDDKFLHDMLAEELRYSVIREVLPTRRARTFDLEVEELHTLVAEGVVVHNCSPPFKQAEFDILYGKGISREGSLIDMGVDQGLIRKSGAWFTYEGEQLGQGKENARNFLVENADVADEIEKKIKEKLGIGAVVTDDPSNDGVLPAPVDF
# Mtb betalactam: beta-lactam sensitization of Mtb H37Rv; hit rate 0.27% among 330,000; inhibition, % at 25 µM; AID 434955; M. tuberculosis H37Rv growth with meropenem, percent inhibition; hits of this screen are not shown here;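 active means about 74% or more and at least 40 points above the plate without the antibiotic, then above 30% in a dose series; inconclusive means first-round hits that could not be retested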;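 further: growth measured after seven days incubation then overnight dye step; 0% = bacteria only wells and 100% = bacteria with antibiotic; twin plates without the antibiotic show which effects depend on it; some results filed as inactive read as strong as hits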
# YopH PTP inh: YopH (Yersinia) phosphatase inhibition. hit rate 0.16% among 140,000. fluorescence Ex485/Em525. AID 898. inhibition, %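 (about 10 µM by stock and volumes)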;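 active means inhibition of 50% or more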;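 further: controls were vehicle for no effect and minimum signal wells for full effect; inactives centre near -20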
# Arbovirus inh: arbovirus infection inhibition | hit rate 0.37% among 200,000 | inhibition, % at 10 µM | arbovirus infection cell-based antiviral screen | AID 1251;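 active means inhibition from about 30%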;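 further: bluetongue infection of BSR cells; cell survival read as ATP light after 72 h; 0% = infected wells without compound and 100% = uninfected wells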
# Arbovirus inh repeat: second read-out of Arbovirus inh, no call of its own (marks repeat the call); inhibition, %; measured here: 10K subset replicate screen; many hits read low in the repeat;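 first of two repeat runs on a subset; 0% = infected and 100% = uninfected wells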
# Active calls of the source: *; ? = inconclusive; / = not tested or not shown. These rows are one share of the data (hit frequency here may not be typical).
SMILES,Mtb growth,RecA splice inh,Mtb betalactam,YopH PTP inh,Arbovirus inh,others
CC(C)(C)C1CCC(OCC(O)CN2CCN(Cc3ccccc3)CC2)CC1 (stereo not given),7%,-0.1,64,-32,-36,
CC(=O)C1C(c2ccccc2OC(F)F)NC(=O)NC1(O)C(F)(F)F (stereo not given),/,0.1,0,-27,6,
COC(=O)COc1ccc(-c2nn(C)c(=O)c3ccccc23)cc1,13%,1.5,99,-3,7,
COc1ccc(COC(=O)CCN=C2NS(=O)(=O)c3ccccc32)cc1F,/,-2.0,0,/,/,
COC(=O)Cc1cc(=O)n(-c2nc3ccccc3[nH]2)[nH]1,-3%,-2.0,-5,-9,-3,
CCCCOc1ccccc1/C=N/NC(=O)CC#N,-1%,3.3,42,/,6,
Cc1cc(Cl)ccc1NNC(=O)c1c(C)noc1C,57%,-1.2,98,/,/,
O=C(NNC(=O)c1cc(-c2ccncc2)nc2ccccc12)c1ccccc1O,/,4.2,-1,/,/,
COc1ccccc1N1CCN(CC(=O)c2c(C)n(C)c3ccccc23)CC1,-3%,0.5,-7,-31,7,
CCCCCCCC(=O)NNC(=O)Cc1ccccc1,-3%,-2.8,1,-39,4,
O=C(c1ccccc1)c1nccc2ccccc12,-5%,1.2,2,10,-4,
O=C(/C=C/c1ccc([N+](=O)[O-])s1)N1CCN(c2ccccc2)CC1,/,-7.0,95,/,/,
CCN1CCN(CCCNC(=O)CCCn2nc(C)c3sc4ccccc4c3c2=O)CC1,/,-1.8,2,/,/,
CC(=O)Nc1ccc(N2N=C(C)C(N=Nc3ccccc3)C2=O)cc1 (stereo not given),1%,4.1,11,-14,-16,
O=C(CC12CC3CC(CC(C3)C1)C2)NC(=S)N1CCCCC1,0%,2.1,-4,-20,11,
O=C(NCC1CCCO1)c1ccc(N2CCCCC2)nc1 (stereo not given),-11%,1.7,3,-18,6,
CCOc1ccccc1N1CCN(Cc2cnc(-c3ccccc3)[nH]2)CC1,0%,-0.1,-1,/,/,
O=C(Nc1ccc(N2CCOCC2)cc1)C1CCCN(S(=O)(=O)c2cccc(C(F)(F)F)c2)C1 (stereo not given),-2%,-1.8,2,-4,-18,
COc1cccc(/C=N/Nc2ncnc(N)c2[N+](=O)[O-])c1OC,-7%,-1.4,18,-12,-3,
N#Cc1c(C(F)(F)F)cc(-c2ccc(Cl)cc2)nc1SCC(=O)O,20%,0.3,-9,/,3,
Cc1cccc(-c2noc(CN(C)S(=O)(=O)c3cc(Cl)ccc3Cl)n2)c1,2%,3.0,-6,7,19,
O=C(OCC(=O)N1CCN(c2ccccc2)CC1)c1ccc(Cl)cc1[N+](=O)[O-],/,-0.1,89,/,/,
O=S(=O)(Nc1ccccn1)c1ccc(-n2cccn2)cc1,/,-0.4,-5,/,/,
O=S(=O)(Nc1cccnc1)c1ccc(F)cc1,/,-0.5,3,/,/,
COc1cccc(OC)c1C(=O)Nc1cc2c(cc1N1CCOCC1)n(C)c(=O)n2C,/,-0.2,1,/,/,

# More results follow:
SMILES,Mtb growth,RecA splice inh,Mtb betalactam,YopH PTP inh,Arbovirus inh,others
O=C(CN1CCN(c2ccccc2F)CC1)Nc1cccnc1Cl,11%,1.1,9,/,-10,
CCSc1nc2c(c(=O)[nH]1)C(c1cccs1)C(C(=O)OC)=C(C)N2 (stereo not given),/,-0.2,1,-35,1,
N/C(=N\OC(=O)c1cc(Br)ccc1Cl)c1ccccn1,5%,0.1,36,/,-4,
COc1ccc(C2C(C(=O)c3ccco3)=C(O)C(=O)N2CC2CCCO2)cc1OC (stereo not given),/,3.7,7,/,/,
Fc1ccc(CCNCc2ccc(Br)cc2)cc1,10%,-0.7,4,-17,-7,
O=C(COc1ccc2c(-c3ccccc3)cc(=O)oc2c1)N[C@H](Cc1c[nH]c2ccccc12)C(=O)O,/,-2.2,-3,/,/,
COc1ccc(CNc2ncc(-c3ccc(F)cc3)n2C)cc1OC,/,-3.7,1,/,/,
CCn1c(COc2cccc(OC)c2)nnc1SCC(=O)Nc1ccccc1C(=O)OC,-7%,4.4,3,-50,17,
CCCCCN(C(=O)CCC(=O)OCC(=O)N1CCC(C)CC1)c1c(N)n(CCCC)c(=O)[nH]c1=O,/,-0.4,-12,/,/,
COc1nc(Nc2ccc(C(C)C)cc2)nc(OC)n1,4%,4.2,-3,-22,-6,
O=C(OCc1cc([N+](=O)[O-])cc2c1OCOC2)c1ccccn1,4%,2.1,-2,/,9,
CC1CCCN(C(=O)C2CCN(S(=O)(=O)c3ccc4c(c3)CC(C)N4C(=O)C3CC3)CC2)C1 (stereo not given),/,0.6,-5,/,/,
COCCCNC(=O)/C(C#N)=C/c1c(N2CCN(c3ccc(OC)cc3)CC2)nc2c(C)cccn2c1=O,/,0.6,32,/,/,
COc1ccc(NC(=S)Nc2ccc(C)c(S(=O)(=O)N3CCCCC3)c2)cc1,4%,5.2,1,-23,13,
Cc1ccccc1C(=O)N1N=C(c2cccc(NS(C)(=O)=O)c2)CC1c1cccs1 (stereo not given),/,3.7,1,/,/,
Cc1cccc(-n2ncc3c(NCc4ccccn4)ncnc32)c1,11%,-13,-6,-28,-2,
C/C=C1\C(OC2OC(CO)C(O)C(O)C2O)OC=C(C(=O)OC)C1CC(=O)OCC1C(C)C(OC(=O)CC2C(C(=O)OC)=COC(OC3OC(CO)C(O)C(O)C3O)/C2=C\C)CC1C(CO)CO (stereo not given),-13%,-6.9,2,/,2,
Cc1ccc2nc(C)/c(=N\O)c(C)nc2c1,5%,-2.5,-7,11,6,
Cc1ccc(C(=O)c2c(NC(=O)c3cccnc3)sc3c2CCCC3)cc1,55%,3.9,90,-40,-22,
O=C(c1cccs1)N1CCCC(c2nc3c(nnn3Cc3ccccc3Cl)c(=O)[nH]2)C1 (stereo not given),/,1.8,4,/,/,
CCC(CC)C(=O)c1c[nH]c(C(=O)N2CCN(c3ccccc3F)CC2)c1,7%,-0.4,-4,/,5,
CCOc1cccc2sc(=NC(=O)c3ccc(S(=O)(=O)N4CCOCC4)cc3)n(C)c12,3%,/,-1,-5,5,
CCc1sc(N2C(=O)C3C4CCC(C4=C(C)C)C3C2=O)nc1-c1ccccc1 (stereo not given),-5%,9.8,-13,-22,-6,
Cc1ccc(C)n1N1C(=O)/C(=C\c2ccc(Cl)cc2)SC1=S,-6%,23,-3,18,-2,
Cc1cc(Nc2ccc([N+](=O)[O-])cc2)c2ccccc2n1,/,-0.4,1,/,/,

# (further entries)
SMILES,Mtb growth,RecA splice inh,Mtb betalactam,YopH PTP inh,Arbovirus inh,others
Cc1cc(C)c2nc(N3CCN(C(=O)c4ccco4)CC3)sc2c1,/,11,17,/,/,
CC(C)OCCCNC(=O)c1cc2c(s1)CS(=O)(=O)C2,-5%,2.0,6,-6,9,
COc1ccc(N=Nc2c(C)[nH]c3ccccc23)cc1,/,14,80,/,/,
COc1ccc(-n2ncc3c(NCCCN4CCOCC4)ncnc32)cc1,0%,6.2,3,-21,12,
N#Cc1cc2c(nc1SCC(=O)O)CCCCC2,-10%,0.2,-4,/,/,
Cc1sc(N)nc1-c1cccs1,3%,-4.9,3,-10,-10,
CCN(CC)c1ccc(NC(=O)COC(=O)COc2ccccc2[N+](=O)[O-])cc1,5%,-2.6,8,-11,-2,
CCc1nnc(NC(=O)c2cc(S(=O)(=O)N3CCOCC3)ccc2N2CCCCC2)s1,3%,-1.7,/,/,8,
S=C1NC2(CCS1)Oc1ccccc1C1CC(c3ccccc3)=NN12 (stereo not given),2%,9.6,/,/,/,
COc1ccc(/C=N/NC(=O)c2ccncc2)cc1CN1CCCc2ccccc21,?,7.8,98,/,3,
CN(C(=O)COC(=O)c1ccc(Cl)cc1N)C1CCS(=O)(=O)C1 (stereo not given),-14%,-0.5,-15,-15,-2,
COc1cc(OC)cc(-c2nnc(SCC(=O)N3CCCC3)o2)c1,15%,-1.8,41,-19,-4,
Cc1cc([N+](=O)[O-])nn1Cc1noc(C(=O)NCCCn2ccnc2)n1,/,3.4,-9,/,/,
CCc1nnc(NC(=O)CSCc2cc(=O)n3ccsc3n2)s1,/,-2.5,1,/,/,
NC(=O)c1ccsc1NC(=O)COC(=O)C1CCCN1C(=O)c1cccs1 (stereo not given),1%,-0.7,-5,-61,1,
CC(Oc1ccc(Cl)cc1Cl)C(=O)NC1CCSC1=O (stereo not given),-1%,0.0,4,-21,0,
COc1ccc(NC(=O)C(NC(=O)c2ccc(=O)[nH]c2)c2ccccc2)cc1 (stereo not given),8%,4.1,-1,-12,-14,
COc1ccc(Cn2c(C)cc3c(c2=O)C(c2cccs2)C(C#N)=C(N)O3)cc1OC (stereo not given),1%,-0.4,1,-10,-13,
c1ccc(Cn2c(CNc3nc4ccccc4n3CCN3CCOCC3)nc3ccccc32)cc1,3%,11,15,-32,10,
NC(=O)C1(N2CCCCC2)CCN(C(=S)Nc2ccccc2)CC1,-3%,0.1,9,-27,8,
CC1(C)C2CCC1(C)C(NC1=NCCC1)C2 (stereo not given),-12%,/,-2,-14,9,
CCOC(=O)C1C(=O)N(C)C2(C)CC1c1cc(OC)ccc1O2 (stereo not given),1%,-0.8,2,-14,0,
COCCNC(=O)CS(=O)Cc1nc(-c2ccc(OC)cc2)oc1C (stereo not given),-13%,2.0,-4,/,8,Arbovirus inh repeat=0
O=C(COc1ccc(Cl)cc1)NC1CCSC1=O (stereo not given),-8%,/,-1,-2,-4,
O=C(Nc1ccccc1Cl)OC1CN2CCC1CC2 (stereo not given),2%,/,-5,/,/,

# Quoted at random: 3 compounds from above, in no set order.
SMILES,Mtb growth,RecA splice inh,Mtb betalactam,YopH PTP inh,Arbovirus inh,others
CC(Oc1ccc(Cl)cc1Cl)C(=O)NC1CCSC1=O (stereo not given),-1%,0.0,4,-21,0,
COCCNC(=O)CS(=O)Cc1nc(-c2ccc(OC)cc2)oc1C (stereo not given),-13%,2.0,-4,/,8,Arbovirus inh repeat=0
CC(C)OCCCNC(=O)c1cc2c(s1)CS(=O)(=O)C2,-5%,2.0,6,-6,9,

# Gathered by group: the entries above with a CF3 group
SMILES,Mtb growth,RecA splice inh,Mtb betalactam,YopH PTP inh,Arbovirus inh,others
CC(=O)C1C(c2ccccc2OC(F)F)NC(=O)NC1(O)C(F)(F)F (stereo not given),/,0.1,0,-27,6,
O=C(Nc1ccc(N2CCOCC2)cc1)C1CCCN(S(=O)(=O)c2cccc(C(F)(F)F)c2)C1 (stereo not given),-2%,-1.8,2,-4,-18,
N#Cc1c(C(F)(F)F)cc(-c2ccc(Cl)cc2)nc1SCC(=O)O,20%,0.3,-9,/,3,

# (list continues)
SMILES,Mtb growth,RecA splice inh,Mtb betalactam,YopH PTP inh,Arbovirus inh,others
O=C(O)[C@@H](O)c1ccccc1,5%,0.2,1,/,3,
COCc1ccc(C(=O)N2CCC(CCC(=O)Nc3cccc(C)c3)CC2)s1,/,2.0,-3,/,/,
CCCn1nnnc1SCC(=O)NNC(=O)c1ccco1,-7%,-1.3,3,/,6,
CCc1ccc(OC(C)C(=O)Nc2ccc(S(=O)(=O)Nc3nccs3)cc2)cc1 (stereo not given),/,0.9,-3,/,/,
Cc1ccc(SCC(=O)Nc2ccc(S(N)(=O)=O)cc2)cc1,7%,-0.5,1,/,1,
CN1CCN(c2ccccc2NC(=O)c2ccc(-c3ccccc3[N+](=O)[O-])o2)CC1,/,1.1,-8,/,/,
Cc1ccc2c(c1)c1c(n2CC(O)CN2C(=O)CNC2=O)C(=O)CCC1 (stereo not given),5%,-13,2,-3,-3,Arbovirus inh repeat=-4
O=C1CC(C(=O)Nc2ccccc2)N=C(N2CCOCC2)N1 (stereo not given),-1%,-2.1,-3,1,3,
Cc1cc(C)nc(NC=C2C(=O)OC(C)(C)OC2=O)n1,1%,2.0,2,/,/,
CC(C)C[C@H](N)c1nnc(S(=O)(=O)Cc2ccc(F)cc2)o1,1%,34*,38,-34,-4,
Cc1cc(C)c2nc(NCCCNC(=S)NCCCN(C)C)c(C#N)cc2c1,2%,-71,46,/,-31,
COc1ccc(-c2ccc(C(c3c(C)[nH][nH]c3=O)c3c(C)[nH][nH]c3=O)o2)c([N+](=O)[O-])c1,9%,/,/,/,-8,
Cc1cc(N2CCN(Cc3ccc4c(c3)OCO4)CC2)n2ncnc2n1,-10%,-0.3,0,-28,-2,
COc1cccc(NC(=O)COC(=O)c2ccccc2C(=O)N2CCN(c3ccccc3)CC2)c1,11%,1.7,-15,/,5,
CCOCCCNC(=O)c1c[nH]c2cc(C)ccc2c1=O,-2%,6.1,2,-40,0,
COC(=O)Cn1ncc2c(C)n(Cc3ccccc3)c(C)c2c1=O,2%,0.0,1,-32,-2,Arbovirus inh repeat=10

# Entries above that contain bromine, in the order listed:
SMILES,Mtb growth,RecA splice inh,Mtb betalactam,YopH PTP inh,Arbovirus inh,others
N/C(=N\OC(=O)c1cc(Br)ccc1Cl)c1ccccn1,5%,0.1,36,/,-4,
Fc1ccc(CCNCc2ccc(Br)cc2)cc1,10%,-0.7,4,-17,-7,
